Screening data as filed in PubChem BioAssay.
VDR inh = vitamin D3 receptor (human) inhibition; P11473; VDR-SRC2-3 peptide fluorescence polarization, 2 h; Potency, µM, for inactives: max response, negative = inhibition, actives largely listed as inhibitors; hit rate 0.93% among 400,000; AID 504847; active = well fitted inhibition curve with a large enough effect; inconclusive = small, poorly fitted or top-dose-only effect, or another doubt; inactive = no such curve, though single readings can be large or run the other way; also: series mostly up to about 120 µM
Target sequence (P11473 whole entry, looked up): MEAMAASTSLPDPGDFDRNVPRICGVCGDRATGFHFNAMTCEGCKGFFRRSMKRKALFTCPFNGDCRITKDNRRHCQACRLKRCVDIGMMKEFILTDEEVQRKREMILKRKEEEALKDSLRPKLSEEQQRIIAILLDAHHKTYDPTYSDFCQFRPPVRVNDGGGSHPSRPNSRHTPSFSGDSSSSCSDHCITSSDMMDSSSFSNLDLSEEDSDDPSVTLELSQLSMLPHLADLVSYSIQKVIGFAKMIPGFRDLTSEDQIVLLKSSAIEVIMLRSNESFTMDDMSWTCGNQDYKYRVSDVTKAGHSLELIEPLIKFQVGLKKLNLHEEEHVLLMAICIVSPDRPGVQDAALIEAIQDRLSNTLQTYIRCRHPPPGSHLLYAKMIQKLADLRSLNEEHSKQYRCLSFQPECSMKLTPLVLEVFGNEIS
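Compounds are added to VDR with labelled SRC2-3 coactivator peptide and held 2 h at room temperature. Inhibition of the VDR–peptide interaction is then read as a change in fluorescence polarization.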
Starred values were filed as active, the others as inactive; u = inconclusive; & = joins results of further samples; [ ] = another dose, or the depositor's remark. % is scaled to controls: 0 for no effect and ±100 for the full control effect; potency is read from the fitted curve at half-maximal effect. This is a subset, so the mix of outcomes need not match the whole.

canonical_smiles	VDR inh
O=C(Nc1nnc(S(=O)(=O)N2CCCCCC2)s1)c1ccccc1Cl	4%&-2%
Cc1cc(C)c(N(C(=O)c2csnn2)C(C(=O)NC(C)(C)C)c2ccncc2)c(C)c1 (stereo unspecified)	12%
Cc1ccc(NC(=O)Nc2nnc(N(C)C3CCCCC3)s2)c(Cl)c1	13%
Cc1ccc(C)c(NC(=O)c2ccc(S(=O)(=O)C(F)F)cc2)c1	8%
COc1ccc(NC(=O)C(C)NS(=O)(=O)c2ccccc2)cc1Cl (stereo unspecified)	-8%
COC(=O)C1=C(C)N(c2cccc3ccccc23)C(=O)C1	-3%
COC(=O)c1ccccc1NC(=O)Cn1nnc(-c2ccc3c(c2)OCO3)n1	7%
N#CCCN(C(=O)COC(=O)Cc1ccc(Br)cc1)c1ccccc1	-20%
O=C(/C=C/c1ccccc1)OCC(=O)N1CCN(c2ccccc2)CC1	32%[activator]
CN(C)c1ccc(CNC(=O)Cn2ccc3cc(S(=O)(=O)N4CCCCCC4)ccc32)cc1	-5%
Cc1nnc(SCC(=O)NCc2ccc3c(c2)OCO3)n1C	-10%
C[C@H](CO)N1C[C@H](C)[C@@H](CN(C)S(=O)(=O)c2ccc(F)cc2)Oc2ccc(NC(=O)CCC(F)(F)F)cc2C1=O	1%
O=S(=O)(Nc1ccc2c(c1)nc1n2CCOC1)c1ccc(Cl)cc1	-4%
Brc1ccccc1-c1nnc(CSc2nncn2-c2ccccc2)o1	-18%
C#CCN(C#N)c1nc(NCC)nc(NC(C)C)n1	0%
CC1CCc2sc3ncnc(N4CCOCC4)c3c2C1 (stereo unspecified)	-19%
COc1ccc(OC)c(C2C(C(=O)Nc3ccc(C)cc3)=C(C)Nc3nnnn32)c1 (stereo unspecified)	5%
O=C1c2ccccc2C(=O)N1CCCn1c2ccc(Cl)cc2c2nc3ccccc3nc21	1%
COC(=O)/C=C/c1cccc(N(Cc2ccc(-c3ccc(N(C)C)cc3)cc2)C(=O)C2CCCCC2)c1	0%
CC(C)OC(=O)CSc1nnc(-c2ccccc2)n1N	-12%
Cc1nn(-c2nc3ccccc3[nH]2)c(=O)c2ccccc12	7%
CC(C)(C)NC(=O)COC(=O)c1ccc(S(=O)(=O)N2CCCC2)cc1	7%
O=C(O)CCN1CCc2ccccc21	28%
C[C@@H](C(=O)Nc1cc(C(F)(F)F)ccc1N1CCOCC1)N1C(=O)C2CC=CCC2C1=O (stereo partly specified)	-4%
CN1CCN(S(=O)(=O)c2cccc(C(=O)N(C)CC(=O)Nc3ccc(F)c(F)c3F)c2)CC1	18%
CC(C)[C@H](NS(=O)(=O)c1ccc2c(c1)OCCO2)C(=O)OCC(=O)Nc1ccccc1Cl	2%
CCOC(=O)C1CCCN(c2cc(=O)n(C3CCCCC3)c(=O)[nH]2)C1 (stereo unspecified)	-4%
O=C(Nc1ccnc(-c2ccncc2)n1)c1ccc(F)cc1	-9%
COC(=O)c1sc(SC)c(S(=O)(=O)C(C)C)c1N/N=C(\C#N)C(=O)c1ccccc1	-10%
COCC1CCN(Cc2cn[nH]c2-c2ccc(OC)cc2F)C1 (stereo unspecified)	37%[activator]
CC1CCCCC1NC(=O)CCNC(=O)N1CC(=O)Nc2ccccc21 (stereo unspecified)	-7%
O=C(Nc1ccccc1C(=O)N/N=C/c1ccco1)c1ccccc1	2%
COc1cc(/C=C/C(=O)OCC(=O)N2CCCC2)cc(OC)c1OC	-1%
O=C(c1ccco1)N1CCN(C(=O)c2cc3c(s2)-c2ccccc2OC3)CC1	-29%
O=C(CCn1c(=O)oc2ccccc21)NCCN1CCOCC1	0%
O=C1c2ccc(Oc3ccc([N+](=O)[O-])cc3)cc2C(=O)N1CCO	-3%
COc1ccc(S(=O)(=O)Nc2cc(C)ccn2)cc1	2%
Cc1cccc(N2CCN(C(=O)Cn3c(=O)[nH]c4ccsc4c3=O)CC2C)c1 (stereo unspecified)	-8%
O=C(c1cccc(-c2ccc(O)cc2)c1)N1CCN(c2ccc(F)cc2)CC1	3%
Cc1ccc(O)c(C(=O)c2cc(C#N)c(=O)n(CC3CCCO3)c2)c1 (stereo unspecified)	0%
CCc1ccc(NC(=O)C(=O)NCC(c2cccnc2)N2CCN(c3ccc(F)cc3)CC2)cc1 (stereo unspecified)	7%
CC(C)NC(=O)C1CC=CCC1C(=O)O (stereo unspecified)	-4%
CN(C)c1ccc(/C=N/NC(=O)c2cnc3ccccc3c2)cc1	-8%
COc1ccc(CNS(=O)(=O)CCNCc2ccccc2OC)cc1	-7%
O=C(c1nc2ccccn2c1CNCCCn1cccn1)N1CCCC1	-24%
CN(C)c1nc(SCCOC(=O)c2ccccc2)nc(N(C)C)n1	4%
O=C(COC(=O)c1ccccc1NC(=O)c1ccco1)NC1CCCCC1	10%
CC(=O)CCc1oc2ccc(C)cc2c1Cc1ccccc1	2%
Cc1ccc(S(=O)(=O)c2nc(S(C)(=O)=O)sc2N(C)C)cc1	-2%
CC(C)c1ccc(NC(=O)NCc2cccnc2)cc1	-16%
CCCc1cc2c(=O)n(NC(=O)c3nn(C)cc3[N+](=O)[O-])c(C)nc2s1	-8%
COC(=O)c1cc(OC)c(OC)cc1NC(=O)C(C)c1ccc([N+](=O)[O-])cc1 (stereo unspecified)	-18%
COc1ccc(OCCCCN2CCC(C)CC2)cc1	1%
Cc1ccc(C)c(NNC(N)=S)c1	-29%
CCc1ccc(-n2c(=O)c3sc4ccccc4c3n(CC(=O)NCc3ccccc3)c2=O)cc1	6%
O=C(Cc1cccs1)Nc1ccc(-c2nnc(-c3ccccc3)o2)cc1	-6%
CCOC(=O)CC(NC(=O)c1ccccc1)c1ccc(OC)cc1 (stereo unspecified)	2%
Cc1cccc(CC2S/C(=N/c3ccccn3)NC2=O)c1 (stereo unspecified)	7%
CN(C)/C=N/NC(=O)C1Cc2c(ccc3ccccc23)O1 (stereo unspecified)	-18%
O=c1c2ccccc2sn1-c1ccc(Cl)c(S(=O)(=O)N2CCOCC2)c1	u

Single values from the list:
C[C@@H](C(=O)Nc1cc(C(F)(F)F)ccc1N1CCOCC1)N1C(=O)C2CC=CCC2C1=O (stereo partly specified) | VDR inh: -4%
CCOC(=O)C1CCCN(c2cc(=O)n(C3CCCCC3)c(=O)[nH]2)C1 (stereo unspecified) | VDR inh: -4%

(cont.)
mol	VDR inh
COc1ccc(/C=N/NC(=O)c2c(Br)cnn2C)c2ccccc12	6%
CCC1Oc2ccccc2N(CC(=O)NCCCN2CCOCC2)C1=O (stereo unspecified)	-12%
COc1ccccc1C(=O)COC(=O)c1cccc(S(=O)(=O)N2CCCC2)c1	11%
Cc1cc(N2CCN(c3ccc(F)cc3)CC2)nc(-c2ccccc2)n1	18%
CC(=O)/C(N=Nc1ccc(C(=O)O)cc1)=C(\C)O	-4%
Cc1cccc(C)c1OCC(=O)Nc1ncn[nH]1	-13%&1%
COc1ccc(NC(=O)CS(=O)(=O)c2cn(CC(=O)N3CCOCC3)c3ccccc23)cc1OC	0%
CN(CC(=O)NC1CCCC1)S(=O)(=O)c1cnc[nH]1	-15%
O=C(Nc1ccccc1OC(F)F)c1ccc(S(=O)(=O)N2CCCC2)cc1	10%
Cn1c(SCC(=O)N2CCOCC2)nnc1-c1ccco1	-2%
O=C(c1cccc(S(=O)(=O)Nc2ccccc2Cl)c1)N1CCC1	-23%
O=C(CS(=O)CC(=O)Nc1ccc(Cl)cc1)NCC1OCCc2ccccc21 (stereo unspecified)	-7%
CNCC(C)COc1ccccc1OCc1ccccc1 (stereo unspecified)	-1%
CCN=C1SC(CC(=O)NCC)C(=O)N1CC (stereo unspecified)	-16%
Nc1ncnc2c1ncn2CCN1CCCCC1	1%
c1ccc(Cc2cc[n+](Cc3ccccc3)cc2)cc1	26%
CCOC(=O)CC(=O)CSc1nc(C)cc(-c2cccnc2)c1C#N	6%
CCOc1ccc(C2C3=C(CCCC3=O)N(CC(=O)O)C3=C2C(=O)CCC3)cc1	-1%
CCc1[nH]c(C(=O)O)c(C)c1C(=O)OC	-12%
COc1ccc(-n2nnnc2-c2nc3ccccc3s2)cc1	4%
Cc1cc(N2CCCCC2)nc2ccc(NC(=O)/C=C/c3ccc(OCCC(C)C)cc3)cc12	2%
CCCCc1ccc(NC(=O)N2CCNC(=O)C2CC(=O)Nc2ccsc2C(=O)OC)cc1 (stereo unspecified)	15%
CC(=O)Nc1ccc(OCC[n+]2cccc(C(N)=O)c2)cc1	7%
CN1CCN(c2ccc(C(=O)c3ccc(Br)cc3)cc2[N+](=O)[O-])CC1	-8%
CCOc1ccccc1CNC(=O)CCc1c(C)nn(-c2ccc(N3CCCCC3)nn2)c1C	4%
Fc1ccccc1Nc1nc2ccccc2o1	-9%
Cc1cccc(NC(=O)CN2CCN(C(=O)C3CCCO3)CC2)c1C (stereo unspecified)	8%
C=CCN(CC=C)C(=O)C1CCN(Cc2ccc(OCc3ccccc3)cc2)CC1	-13%
CC1CCCN(C(=O)COC(=O)c2cccc(NS(=O)(=O)c3ccccc3)c2)C1 (stereo unspecified)	-6%
Cc1ccc(C(=O)N/C(=C\c2ccco2)C(=O)NCCc2c[nH]c3ccccc23)cc1	-6%

Ordered by length of the SMILES (low to high): some entries from above
mol	VDR inh
c1ccc(Cc2cc[n+](Cc3ccccc3)cc2)cc1	26%
Cc1cccc(NC(=O)CN2CCN(C(=O)C3CCCO3)CC2)c1C (stereo unspecified)	8%
C=CCN(CC=C)C(=O)C1CCN(Cc2ccc(OCc3ccccc3)cc2)CC1	-13%

(list continues)
mol	VDR inh
COc1ccc(/C=N/Nc2nc(C)c([N+](=O)[O-])c(N(C)c3ccccc3)n2)cc1OC	8%
CCC(=O)Nc1cccc(-c2nc3ccc(C)cc3o2)c1	-13%
O=C(CSc1nc2ccccc2[nH]1)Nc1ccccc1F	13%
CCCn1c(COc2cccc(C)c2)nc2ccccc21	9%
COc1ccccc1NS(=O)(=O)c1cc(-c2cnc(C3CC3)o2)ccc1C	7%
Cc1cc(C(=O)NC2CCCN(Cc3ccc(Cl)cc3)C2)n(C)n1 (stereo unspecified)	20%
O=C(NCc1ccc(OC(F)(F)F)cc1)c1ccc2c(c1)S(=O)(=O)c1ccccc1C2=O	-3%
COCCNC(=O)c1cc(-c2ccccc2C)n(CC2CC(c3cccc([N+](=O)[O-])c3)=NO2)n1 (stereo unspecified)	-23%
COc1cc(/C=C(\NC(C)=O)C(=O)Nc2ccccc2C)ccc1OC(C)=O	-15%
CCc1c(O)nc2ccccn2c1=O	5%
C=CCc1ccc(OCC(O)COc2ccc(CC=C)cc2OC)c(OC)c1	-6%
CCOC(=O)c1ccc(NC(=O)CSc2ccc(-c3cccnc3)nn2)cc1	-3%
O=C(NC1=C(Nc2ccc(Cl)cc2)C(=O)c2ccccc2C1=O)c1ccccc1	-9%
Clc1cccc(CSc2nnc(-c3cccnc3)n2Cc2ccco2)c1	8%
COc1cc(/C=C/c2cc(C(F)(F)F)[nH]c(=O)n2)cc(OC)c1OC	u
CCN(CC)C(=O)n1c(Cc2ccccc2)nc2ccccc21	11%
CCCCC(=O)NC(=S)Nc1ccc(Cl)c(C(=O)O)c1	-7%
Cc1cccc(/C=N/n2c(COc3ccccc3)n[nH]c2=S)c1	-7%
O=S(=O)(Nc1nc2n(n1)C(c1ccccc1)C=C(c1ccc(Cl)cc1)N2)c1ccccc1 (stereo unspecified)	-11%
Nc1ccccc1SCc1cn2ccccc2n1	3%
COc1ccc2c(c1)c(C(=O)CN1CCC3(CC1)OCCO3)c(C)n2C	-4%
CCOC(=O)c1cccc(NC(=O)N[C@@H](C)C(=O)OC)c1	11%
N#C/C(=C(/O)c1ccc([N+](=O)[O-])o1)c1nc2ccccc2[nH]1	6%
CCOCCCNCC(=O)Nc1ccc(OC(F)(F)F)cc1	-7%
COc1ccc(CNC(=O)c2c(N)n(CCCN3CCOCC3)c3nc4ccccc4nc23)cc1	3%
O=C(COc1ccc2c(c1)CCC2)NCc1cccc(Cl)c1	-6%
CCCCn1c(N)c(N(CC(C)C)C(=O)c2cc(-c3ccc(F)cc3)nc3ccccc23)c(=O)[nH]c1=O	3%
COC(=O)CCS(=O)(=O)c1cc(Cl)ccc1Cl	1%
O=C(NC1CCN(Cc2ccccc2)CC1)c1cn(-c2ccccc2)nc1-c1cccnc1	5%
O=C1CC(C(=O)N2CCc3ccccc32)CN1c1ccccc1 (stereo unspecified)	-6%

Reformatted with the structure last: part of the list above
VDR inh	compound
-13%	CCC(=O)Nc1cccc(-c2nc3ccc(C)cc3o2)c1
13%	O=C(CSc1nc2ccccc2[nH]1)Nc1ccccc1F
9%	CCCn1c(COc2cccc(C)c2)nc2ccccc21
7%	COc1ccccc1NS(=O)(=O)c1cc(-c2cnc(C3CC3)o2)ccc1C
20%	Cc1cc(C(=O)NC2CCCN(Cc3ccc(Cl)cc3)C2)n(C)n1 (stereo unspecified)

(listing goes on)
mol	VDR inh
Cc1cc(NC(=O)COc2ccc3ccccc3c2)no1	6%
COc1cc2[nH]c3c(N4CCN(c5ccc(Cl)cc5)CC4)ncnc3c2cc1OC	8%
Cc1cc(C)c2oc(=O)cc(CN3CCOCC3)c2c1	10%
CC(=O)c1ccc(S(=O)(=O)Nc2ccc(C(=O)N3CCC3)cc2)cc1	-24%

Looked up one by one from above (2):
mol	VDR inh
CC(=O)c1ccc(S(=O)(=O)Nc2ccc(C(=O)N3CCC3)cc2)cc1	-24%
COc1cc2[nH]c3c(N4CCN(c5ccc(Cl)cc5)CC4)ncnc3c2cc1OC	8%
